Ecoli rRNA inh: reduced GFP signal of wild-type E. coli, primary screen, bacterial rRNA inhibitor project, GFP/RFP fluorescence, OD600, single point; E. coli WT GFP vs humanized-ribosome RFP mutants, 24 h; hits give low values; DMSO median 0, no signal -100; GFP signal change (wild-type ribosome), % (concentration not given with the values); actives 1.6% (n = 350,000);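 active = significant combined selectivity score with lowered wild-type GFP, culture density cut under 30%, mutant RFP and density less affected; inactive = any of these conditions unmet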; note: one replicate is shown; some compounds called inactive have numbers as strong as hits
FGF22 binding: binders of human FGF22 protein, primary screen, FGF22 synaptogenesis inhibitor project, biophysical, thermal shift, single point. AID 651658, 2012. recombinant FGF22 thermal shift, SYPRO orange fluorescence; percent of sucrose octasulfate shift, DMSO zero. calls only at 9.99 µM. actives 1.5% (n = 340,000);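 active = melting point raised past a set limit in the mean and every replicate; inconclusive = no clear call; three in four hits are not shown here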
Target sequence (Q9HCT0 whole entry, looked up): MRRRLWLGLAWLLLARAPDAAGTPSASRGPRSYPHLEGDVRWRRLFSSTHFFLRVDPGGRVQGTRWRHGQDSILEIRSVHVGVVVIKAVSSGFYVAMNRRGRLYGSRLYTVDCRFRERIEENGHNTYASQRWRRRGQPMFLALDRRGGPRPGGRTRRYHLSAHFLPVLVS
MLL AF4-AF9 inh: inhibitors of AF4 peptide binding to AF9, primary screen, biochemical, AlphaScreen, biotin-AF4 peptide, FLAG-AF9, single point. Protein AF-9 (Homo sapiens), P42568. inhibition, % at 10 µM. actives 0.47% (n = 350,000). AID 651704, 2012;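 active = every replicate reaching a set inhibition limit, whatever the replicate mean, cut at about 25% in these data; inconclusive = mean inhibition reaches that limit but some replicates miss it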;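 note: 0% = plate neutral control median and 100% = total signal loss; the record names both 10 and 1 µM as test concentration; the first replicate is given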
Target sequence (P42568 whole entry, looked up): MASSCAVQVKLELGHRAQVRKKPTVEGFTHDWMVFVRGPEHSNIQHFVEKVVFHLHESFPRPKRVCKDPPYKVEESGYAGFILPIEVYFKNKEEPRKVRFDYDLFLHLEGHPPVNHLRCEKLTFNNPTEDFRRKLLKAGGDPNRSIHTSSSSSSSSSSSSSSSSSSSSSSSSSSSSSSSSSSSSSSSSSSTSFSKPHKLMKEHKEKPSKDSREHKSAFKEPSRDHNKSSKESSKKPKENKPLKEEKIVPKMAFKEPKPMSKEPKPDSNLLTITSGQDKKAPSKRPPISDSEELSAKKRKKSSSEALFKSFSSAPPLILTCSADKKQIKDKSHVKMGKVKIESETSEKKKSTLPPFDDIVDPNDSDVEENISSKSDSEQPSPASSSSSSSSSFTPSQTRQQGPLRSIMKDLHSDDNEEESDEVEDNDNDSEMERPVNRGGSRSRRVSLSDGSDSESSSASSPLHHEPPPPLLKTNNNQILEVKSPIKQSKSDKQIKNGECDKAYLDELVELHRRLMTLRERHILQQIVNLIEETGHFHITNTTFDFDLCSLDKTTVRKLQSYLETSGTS
Ecoli rRNA inh OD600: second read-out of Ecoli rRNA inh, no call of its own (marks repeat the call); OD600 change, %; measured here: OD600 growth;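 optical density of the mix in the first replicate; 0 = DMSO median and -100 = no signal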
Ecoli rRNA inh RFP: also measured in Ecoli rRNA inh; calls as there; RFP signal change, %; measured here: RFP humanized mutant strains;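 first replicate; 0 = DMSO median and -100 = no signal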
Active calls of the source: *; & = joins results of further samples.

How did COc1ccc(S(=O)(=O)Nc2cccc3c2O[C@@H](CN(C)C(=O)Nc2ccccc2)[C@H](C)CN([C@@H](C)CO)C3=O)cc1 do in these assays?
Ecoli rRNA inh: 3; FGF22 binding: inactive; MLL AF4-AF9 inh: -14; Ecoli rRNA inh OD600: 10; Ecoli rRNA inh RFP: -0.1

Results for CCCCCCCCNCCS(=O)(=O)NC1CCCCC1 ?
Ecoli rRNA inh: -10; FGF22 binding: inactive; MLL AF4-AF9 inh: -28; Ecoli rRNA inh OD600: -28; Ecoli rRNA inh RFP: 4.8

How did CN1C(=O)c2cc(NS(=O)(=O)c3ccccc3Cl)ccc2OC[C@@H]2O[C@@H](CC(=O)O)CC[C@H]21 do in these assays?
Ecoli rRNA inh: 1; FGF22 binding: inactive; MLL AF4-AF9 inh: -0.7; Ecoli rRNA inh OD600: 2; Ecoli rRNA inh RFP: -0.3

What do the screens show for `C/C=C/c1ccc([C@@H]2[C@@H](CNC(=O)CC3CC3)N(C(=O)CC)[C@H]2CO)cc1`?
Ecoli rRNA inh: -2; FGF22 binding: inactive; MLL AF4-AF9 inh: 0.1; Ecoli rRNA inh OD600: 4; Ecoli rRNA inh RFP: 1.8

What do the screens show for `CNC[C@@H]1Oc2cc(-c3ccc(OC)cc3)ccc2S(=O)(=O)N([C@H](C)CO)C[C@H]1C`?
Ecoli rRNA inh: 0; FGF22 binding: inactive; MLL AF4-AF9 inh: 1.5; Ecoli rRNA inh OD600: 0; Ecoli rRNA inh RFP: 3.6

How did C[C@@H]1CCCCO[C@@H](CN(C)C(=O)Nc2ccccc2)[C@@H](C)CN([C@@H](C)CO)C(=O)c2cc(NS(=O)(=O)c3ccccc3)ccc2O1 do in these assays?
Ecoli rRNA inh: -1; FGF22 binding: inactive; MLL AF4-AF9 inh: -11; Ecoli rRNA inh OD600: 5; Ecoli rRNA inh RFP: -1.0

How did CCCNC(=O)C[C@@H]1C[C@H]2c3cc(NC(=O)NC4CCCCC4)ccc3O[C@H]2[C@@H](CO)O1 do in these assays?
Ecoli rRNA inh: 0; FGF22 binding: inactive; MLL AF4-AF9 inh: 0.0; Ecoli rRNA inh OD600: -8; Ecoli rRNA inh RFP: -1.9

How did C[C@@H]1CN([C@@H](C)CO)C(=O)c2cccc(NC(=O)Nc3ccc(C(F)(F)F)cc3)c2O[C@H]1CN(C)Cc1ccc(C(=O)Nc2ccccc2N)cc1 do in these assays?
Ecoli rRNA inh: -3; FGF22 binding: inactive; MLL AF4-AF9 inh: -4.7; Ecoli rRNA inh OD600: -12; Ecoli rRNA inh RFP: -5.3

How did CCC(=O)N(C)C[C@H]1Oc2cc(/C=C/c3ccccc3)ccc2S(=O)(=O)N([C@@H](C)CO)C[C@H]1C do in these assays?
Ecoli rRNA inh: -18; FGF22 binding: inactive; MLL AF4-AF9 inh: 13; Ecoli rRNA inh OD600: -45; Ecoli rRNA inh RFP: -1.0

What do the screens show for `C[C@@H]1CN([C@@H](C)CO)C(=O)c2cc(C3=CCCCC3)cnc2O[C@H]1CN(C)Cc1ccccn1`?
Ecoli rRNA inh: 1; FGF22 binding: inactive; MLL AF4-AF9 inh: -0.2; Ecoli rRNA inh OD600: 0; Ecoli rRNA inh RFP: 2.7

How did C[C@@H]1CN([C@@H](C)CO)C(=O)c2cc(NS(C)(=O)=O)ccc2O[C@@H](C)CCCCO[C@@H]1CN(C)S(=O)(=O)c1ccc(F)cc1 do in these assays?
Ecoli rRNA inh: -4; FGF22 binding: inactive; MLL AF4-AF9 inh: -0.8; Ecoli rRNA inh OD600: 10; Ecoli rRNA inh RFP: -1.5

How did Cc1noc(C)c1S(=O)(=O)N(C)C[C@H]1Oc2ccc(NS(C)(=O)=O)cc2C(=O)N([C@@H](C)CO)C[C@H]1C do in these assays?
Ecoli rRNA inh: -1; FGF22 binding: inactive; MLL AF4-AF9 inh: 2.3; Ecoli rRNA inh OD600: 4; Ecoli rRNA inh RFP: -1.6

Brought forward from above: two entries; new compounds follow.
How did C[C@@H]1CN([C@@H](C)CO)C(=O)c2cc(NS(C)(=O)=O)ccc2O[C@@H](C)CCCCO[C@@H]1CN(C)S(=O)(=O)c1ccc(F)cc1 do in these assays?
Ecoli rRNA inh: -4; FGF22 binding: inactive; MLL AF4-AF9 inh: -0.8; Ecoli rRNA inh OD600: 10; Ecoli rRNA inh RFP: -1.5

How did Cc1noc(C)c1S(=O)(=O)N(C)C[C@H]1Oc2ccc(NS(C)(=O)=O)cc2C(=O)N([C@@H](C)CO)C[C@H]1C do in these assays?
Ecoli rRNA inh: -1; FGF22 binding: inactive; MLL AF4-AF9 inh: 2.3; Ecoli rRNA inh OD600: 4; Ecoli rRNA inh RFP: -1.6

How did C[C@H](O)C#Cc1ccc2c(c1)O[C@H](CN(C)C(=O)C1CCCCC1)[C@@H](C)CN([C@H](C)CO)S2(=O)=O do in these assays?
Ecoli rRNA inh: -2; FGF22 binding: inactive; MLL AF4-AF9 inh: -0.6; Ecoli rRNA inh OD600: 1; Ecoli rRNA inh RFP: -1.4

Results for CC(C)C#Cc1ccc([C@H]2[C@@H](CO)N(C(=O)c3ccccn3)[C@H]2C#N)cc1 ?
Ecoli rRNA inh: -19; FGF22 binding: inactive; MLL AF4-AF9 inh: 1.3; Ecoli rRNA inh OD600: -31; Ecoli rRNA inh RFP: -2.7

How did C[C@H](CO)N1C[C@H](C)[C@H](CN(C)C(=O)Nc2ccc(F)cc2)Oc2ccc(NS(=O)(=O)c3cccs3)cc2CC1=O do in these assays?
Ecoli rRNA inh: 1; FGF22 binding: inactive; MLL AF4-AF9 inh: 0.2; Ecoli rRNA inh OD600: 0; Ecoli rRNA inh RFP: -0.1

Results for OC[C@H]1[C@@H](c2ccc(C#Cc3ccccc3)cc2)[C@H]2CN(Cc3cncnc3)CCCCN21 ?
Ecoli rRNA inh: 3; FGF22 binding: inactive; MLL AF4-AF9 inh: 19; Ecoli rRNA inh OD600: -10; Ecoli rRNA inh RFP: 10

Results for C[C@@H]1CN([C@@H](C)CO)C(=O)c2cccc(NC(=O)c3ccc(-c4nccs4)cc3)c2O[C@@H]1CN(C)CC1CCCCC1 ?
Ecoli rRNA inh: -2; FGF22 binding: inactive; MLL AF4-AF9 inh: 3.1; Ecoli rRNA inh OD600: -4; Ecoli rRNA inh RFP: 3.6

How did COc1ccc2c3c(n(C)c2c1)[C@H](CO)N(CC1CCCCC1)CC31CCN(Cc2nccs2)CC1 do in these assays?
Ecoli rRNA inh: 5; FGF22 binding: inactive; MLL AF4-AF9 inh: inconclusive; Ecoli rRNA inh OD600: -34; Ecoli rRNA inh RFP: 21

How did COc1cc(OC)cc(-c2noc([C@H]3C[C@H](O)[C@@H](CO)O3)n2)c1 do in these assays?
Ecoli rRNA inh: 14; FGF22 binding: inactive; MLL AF4-AF9 inh: -7.2; Ecoli rRNA inh OD600: 21; Ecoli rRNA inh RFP: 3.6

Results for COc1ccc(-c2cnc3cccnn23)cn1 ?
Ecoli rRNA inh: 15; FGF22 binding: inactive; MLL AF4-AF9 inh: -4.5; Ecoli rRNA inh OD600: 10; Ecoli rRNA inh RFP: 4.1

What do the screens show for `C[C@@H]1CN([C@@H](C)CO)C(=O)c2cccc(NS(=O)(=O)c3ccc(F)cc3)c2O[C@@H]1CN(C)C`?
Ecoli rRNA inh: -1; FGF22 binding: inactive; MLL AF4-AF9 inh: -3.8; Ecoli rRNA inh OD600: 4; Ecoli rRNA inh RFP: -2.4

What do the screens show for `Cc1cc(C)c(O)c(CN(C)Cc2cc(Cl)cc(Cl)c2O)c1`?
Ecoli rRNA inh: -56; FGF22 binding: inactive; MLL AF4-AF9 inh: 2.6; Ecoli rRNA inh OD600: -80; Ecoli rRNA inh RFP: -18

What do the screens show for `CCCC1NC(=O)c2cccnc2-n2c1nc1cc(C)cc(C)c1c2=O` (configuration not stated)?
Ecoli rRNA inh: 0; FGF22 binding: inactive; MLL AF4-AF9 inh: -0.5; Ecoli rRNA inh OD600: -7; Ecoli rRNA inh RFP: -6.2

Results for COC(=O)[C@]12CCCCC=C1N(Cc1cccc3ccccc13)C(=O)[C@H](CC(=O)NCCCCc1ccccc1)C2 ?
Ecoli rRNA inh: 8; FGF22 binding: inactive; MLL AF4-AF9 inh: -1.4; Ecoli rRNA inh OD600: 12; Ecoli rRNA inh RFP: 3.2

How did CO[C@@H]1CN(C)C(=O)c2ccc(NC(=O)C3CC3)cc2OC[C@@H](C)N(C(=O)c2ccccc2)C[C@H]1C do in these assays?
Ecoli rRNA inh: 1; FGF22 binding: inactive; MLL AF4-AF9 inh: 0.9; Ecoli rRNA inh OD600: -2; Ecoli rRNA inh RFP: 0.2

Results for C[C@@H]1CN([C@H](C)CO)C(=O)c2cc(NC(=O)CCN3CCOCC3)ccc2O[C@H]1CN(C)C(=O)NC1CCCCC1 ?
Ecoli rRNA inh: 5; FGF22 binding: inactive; MLL AF4-AF9 inh: -1.7; Ecoli rRNA inh OD600: 15; Ecoli rRNA inh RFP: -1.9

How did C[C@@H]1CN([C@@H](C)CO)C(=O)Cc2cc(NC(=O)Nc3cccc4ccccc34)ccc2O[C@H]1CN(C)Cc1ccncc1 do in these assays?
Ecoli rRNA inh: -6; FGF22 binding: active; MLL AF4-AF9 inh: 5.3; Ecoli rRNA inh OD600: -6; Ecoli rRNA inh RFP: 0.3

What do the screens show for `Cc1ccc(S(=O)(=O)CCC(=O)OCC(=O)N(C)c2ccccc2)cc1`?
Ecoli rRNA inh: 3; FGF22 binding: inactive; MLL AF4-AF9 inh: -2.5; Ecoli rRNA inh OD600: 6; Ecoli rRNA inh RFP: -4.3

Results for COc1ccc(NC(=O)N(C)C[C@@H]2OCc3cnnn3CCCC(=O)N([C@@H](C)CO)C[C@H]2C)c(OC)c1 ?
Ecoli rRNA inh: 6&2; FGF22 binding: inactive; MLL AF4-AF9 inh: 0.4&-0.6; Ecoli rRNA inh OD600: -1&-4; Ecoli rRNA inh RFP: -1.5&0.7

Results for COc1ccccc1-c1ccc([C@H]2[C@@H](CO)N(CC3CC3)C23CN(S(C)(=O)=O)C3)cc1 ?
Ecoli rRNA inh: -7; FGF22 binding: inactive; MLL AF4-AF9 inh: 0.5; Ecoli rRNA inh OD600: -15; Ecoli rRNA inh RFP: -0.6

Results for O=C(NCC[C@H]1CC[C@@H](NC(=O)C2CCC2)[C@@H](CO)O1)c1cnccn1 ?
Ecoli rRNA inh: 1; FGF22 binding: inactive; MLL AF4-AF9 inh: -2.2; Ecoli rRNA inh OD600: 2; Ecoli rRNA inh RFP: -1.4

Results for CC(C)NC(=O)N(C)C[C@H]1Oc2ccc(NS(C)(=O)=O)cc2C(=O)N([C@H](C)CO)C[C@@H]1C ?
Ecoli rRNA inh: 5; FGF22 binding: inactive; MLL AF4-AF9 inh: 0.3; Ecoli rRNA inh OD600: 8; Ecoli rRNA inh RFP: -1.8

How did CC(C)NC(=O)N[C@@H]1C=C[C@@H](CC(=O)NCCN2CCCC2)O[C@@H]1CO do in these assays?
Ecoli rRNA inh: 1; FGF22 binding: inactive; MLL AF4-AF9 inh: -1.2; Ecoli rRNA inh OD600: 2; Ecoli rRNA inh RFP: -3.5

Results for C[C@H]1CCCCO[C@H](CN(C)Cc2ccncc2)[C@@H](C)CN([C@@H](C)CO)C(=O)c2cc(NC(=O)c3ccccc3)ccc2O1 ?
Ecoli rRNA inh: -5; FGF22 binding: inactive; MLL AF4-AF9 inh: -5.6; Ecoli rRNA inh OD600: -7; Ecoli rRNA inh RFP: 0.5

What do the screens show for `C[C@H](CO)N1C[C@H](C)[C@H](CN(C)Cc2ccc(C(=O)Nc3ccccc3N)cc2)Oc2ccc(NS(=O)(=O)c3ccccc3)cc2C1=O`?
Ecoli rRNA inh: -1; FGF22 binding: inactive; MLL AF4-AF9 inh: -1.9; Ecoli rRNA inh OD600: -4; Ecoli rRNA inh RFP: 2.5

Results for CCCCN(C(=O)c1ccc(N2C(=O)c3ccccc3C2=O)cc1)c1c(N)n(CC(C)C)c(=O)[nH]c1=O ?
Ecoli rRNA inh: 10; FGF22 binding: inactive; MLL AF4-AF9 inh: 0.7; Ecoli rRNA inh OD600: 11; Ecoli rRNA inh RFP: -2.0

What do the screens show for `C[C@@H]1CN([C@@H](C)CO)C(=O)c2cc(NC(=O)NC3CCCCC3)ccc2O[C@@H]1CN(C)Cc1ccccc1`?
Ecoli rRNA inh: 1; FGF22 binding: inactive; MLL AF4-AF9 inh: -0.6; Ecoli rRNA inh OD600: -11; Ecoli rRNA inh RFP: -1.9

Molecules listed so far containing a Cl atom:
How did CN1C(=O)c2cc(NS(=O)(=O)c3ccccc3Cl)ccc2OC[C@@H]2O[C@@H](CC(=O)O)CC[C@H]21 do in these assays?
Ecoli rRNA inh: 1; FGF22 binding: inactive; MLL AF4-AF9 inh: -0.7; Ecoli rRNA inh OD600: 2; Ecoli rRNA inh RFP: -0.3

What do the screens show for `Cc1cc(C)c(O)c(CN(C)Cc2cc(Cl)cc(Cl)c2O)c1`?
Ecoli rRNA inh: -56; FGF22 binding: inactive; MLL AF4-AF9 inh: 2.6; Ecoli rRNA inh OD600: -80; Ecoli rRNA inh RFP: -18

Not all compounds are listed. The share of hits here may be higher or lower than overall.
